EPAC1 antagonist = qHTS for Antagonist of cAMP-regulated guanine nucleotide exchange factor 3 (EPAC1): primary screen | Rap guanine nucleotide exchange factor 3 (Homo sapiens), O95398 | EPAC1 GEF assay, Rap1b-BODIPY-GDP exchange fluorescence | Potency, µM (doses to about 115 µM), for inactives: top-dose activity change, negative = inhibition, usual class: inhibitors | hit rate 0.14% among 360,000 | AID 720709, 2013;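 further: potency means the concentration at half of the fitted maximal effect; plate controls were vehicle for no effect and positive control for full effect; nearly all actives have a fitted effect of over 50% in size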
HEK293 tox = qHTS of GLP-1 Receptor Inverse Agonists: Cytotox Screen | HEK293 cAMP-luciferase reporter cells, luminescence, 24 h | Potency, µM (series often up to 38.3 µM), for inactives: at the highest dose activity change, negative = inhibition, hits mostly inhibitors | hit rate 0.13% among 410,000;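 further: loss of luciferase light is scored as toxicity; potency means the concentration at half of the fitted maximal effect; on the % scale 0 is the no-effect control and ±100 the full control effect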
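Compound-treated cells are incubated 24 hr at 37 deg C under 5% CO2 after a 12 hour attachment period, then luciferase detection reagent is added and luminescence is measured following 12 min at room temperature; lowered signal indicates toxicity.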
IL-2 act = qHTS of IL-2 Activators; activation, % (series mostly up to about 46 µM); IL-2 activation reporter assay, cell-based qHTS; stimulated with anti-CD3/CD4/CD28 beads; in transgenic mouse T cells; hit rate 0.065% among 360,000; in the data active means activation above about 50%; inconclusive means mostly about 30% to 49%; further: 0% is about no effect
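Using fluorescent plate cytometry, EGFP and DsRed are detected in transgenic mouse T cells stimulated 18 h at 37 degrees C with antibody-coated beads after 60 min compound pretreatment.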
EPAC1 agonist = qHTS for Agonist of cAMP-regulated guanine nucleotide exchange factor 3 (EPAC1): primary screen. EPAC1 agonist qHTS, biochemical assay; response scale: 100% = response to 6.5 mM cAMP. Potency, µM (series often up to 154 µM), without a hit: at the top dose activation, usual class: activators. hit rate 0.073% among 360,000; further: potency means the concentration at half of the fitted maximal effect; nearly all actives have a fitted effect of over 60% in size
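Multi-concentration qHTS readout: loss of Rap1B-bound BODIPY-GDP fluorescence driven by 100 nM EPAC1 with excess GDP (50 uM), monitored kinetically at room temperature; agonist response expressed relative to 6.5 mM cAMP.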
PLK1 PBD block = qHTS for Inhibitors of PLK1-PDB (polo-like kinase 1 - polo-box domain): Primary Screen. Plk1 PBD binding of FITC phosphopeptide, fluorescence polarization. Potency, µM, without a hit: max response, negative = inhibition, hits mostly inhibitors. AID 720504, 2013. hit rate 2.8% among 360,000; further: potency means the concentration at half of the fitted maximal effect; series mostly up to about 57 µM; on the % scale 0 is the no-effect control and ±100 the full control effect; nearly all actives have a fitted effect of over 65% in size
GLP-1R inv ag = qHTS of GLP-1 Receptor Inverse Agonists (Inhibition Mode) | Potency, µM (series often up to 38.3 µM), without a hit: at the highest dose activity change, negative = inhibition, most hits filed as inhibitors | hit rate 1.6% among 410,000 | HEK293 GLP-1R CRE-luciferase, luminescence, 24 h; GLP-1R form is constitutively active | AID 624417, 2012 | Glucagon-like peptide 1 receptor (Homo sapiens), P43220; further: potency means the concentration at half of the fitted maximal effect; on the % scale 0 is the no-effect control and ±100 the full control effect; nearly all actives have a fitted effect of over 55% in size
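Inverse agonism was detected as reduced cAMP-driven luciferase luminescence after 24 h compound treatment. The cells were HEK293 clones expressing constitutively active human GLP-1R with the reporter. Reporter-only and GPR119 cell lines served as counterscreen controls.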
PTHR1 ag = qHTS for PTHR1 Agonists: Primary Screen; HEK293 GP2 PTHR1 cells, GloSensor cAMP luminescence, 1 h; Potency, µM (doses to about 115 µM), inactives show at the highest dose activation, hits mostly activators; hit rate 0.075% among 410,000; Parathyroid hormone/parathyroid hormone-related peptide receptor (Homo sapiens), Q03431; further: potency means the concentration at half of the fitted maximal effect; nearly all actives have a fitted effect of over 55% in size; some results filed as inactive show a strong effect at the top dose; inactives centre near -15; many of its hits are not listed in these tables
Target sequence (Q03431 whole entry, looked up): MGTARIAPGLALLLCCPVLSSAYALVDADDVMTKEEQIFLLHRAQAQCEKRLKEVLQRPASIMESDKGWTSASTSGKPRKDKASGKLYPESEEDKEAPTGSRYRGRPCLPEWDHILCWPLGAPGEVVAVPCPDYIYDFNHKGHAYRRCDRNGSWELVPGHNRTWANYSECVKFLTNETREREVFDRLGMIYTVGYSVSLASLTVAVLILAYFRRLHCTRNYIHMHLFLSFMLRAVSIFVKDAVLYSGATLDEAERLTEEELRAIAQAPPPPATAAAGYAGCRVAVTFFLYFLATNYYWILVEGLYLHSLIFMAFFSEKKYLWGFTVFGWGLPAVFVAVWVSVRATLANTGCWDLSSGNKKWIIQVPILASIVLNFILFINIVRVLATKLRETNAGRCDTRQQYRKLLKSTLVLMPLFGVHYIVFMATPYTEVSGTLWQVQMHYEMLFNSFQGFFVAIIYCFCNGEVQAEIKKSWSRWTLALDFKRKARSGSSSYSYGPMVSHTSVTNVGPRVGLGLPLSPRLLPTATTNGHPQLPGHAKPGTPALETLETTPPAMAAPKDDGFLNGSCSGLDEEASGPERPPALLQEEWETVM
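HEK-293-derived GP2 cells expressing PTHR1 and a GloSensor cAMP reporter, 3,000/well, plated overnight, given luciferin plus IBMX (each 0.5 mM as added) for 1 h at 37 °C, then compound for 1 h at 37 °C. Luminescence was read after 15 min at room temperature.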
GLP1R ag = qHTS of GLP-1 Receptor Agonists; HEK293 GLP-1R CRE-luciferase, luminescence, 4-6 h; cells express a hypersensitive GLP-1R form; Potency, µM (titrated, usually from 45.6 µM), for inactives: at the top dose activation, actives largely listed as activators; Glucagon-like peptide 1 receptor (Homo sapiens), P43220; hit rate 0.007% among 380,000; AID 624172, 2012; further: potency means the concentration at half of the fitted maximal effect; % of control where 0% means no effect
Starred values were filed as active, the others as inactive; i = inactive; ? = inconclusive; / = not tested or not shown; [ ] = remark or other dose. Unless noted, the call rests on the fitted dose curve; in most records, active means well fitted curve in the direction sought with a large enough effect; inconclusive means small, poorly fitted or top-dose-only effect, or another doubt; inactive means no such curve, though single readings can be large; an effect the other way counts as inactive or inconclusive.

The first 3 records, ahead of the listing:
SMILES	EPAC1 antagonist	HEK293 tox	IL-2 act	EPAC1 agonist	PLK1 PBD block	GLP-1R inv ag	PTHR1 ag	GLP1R ag
CC(C)NC(=O)c1c2c(nc3ccccc13)CCCC2	0%	-1%	-0.1	11%	-3%	22%	i	-21%
c1ccc(-c2cnnn2-c2ccccc2)cc1	-7%	10%	2.5	2%	-3%	11%	i	0%
NC(=O)CSc1nnc(NC(=O)C2CC(=O)N(c3ccc(F)cc3)C2)s1 (stereo not drawn)	-3%	-1%	-2.6	1%	?	0%	-18%	-26%

The whole of this part, from the first entry:
SMILES	EPAC1 antagonist	HEK293 tox	IL-2 act	EPAC1 agonist	PLK1 PBD block	GLP-1R inv ag	PTHR1 ag	GLP1R ag
CC(C)NC(=O)c1c2c(nc3ccccc13)CCCC2	0%	-1%	-0.1	11%	-3%	22%	i	-21%
c1ccc(-c2cnnn2-c2ccccc2)cc1	-7%	10%	2.5	2%	-3%	11%	i	0%
NC(=O)CSc1nnc(NC(=O)C2CC(=O)N(c3ccc(F)cc3)C2)s1 (stereo not drawn)	-3%	-1%	-2.6	1%	?	0%	-18%	-26%
O=C(Nc1nccs1)c1ccc2nccnc2c1	8%	-29%	3.9	3%	-10%	0%	i	1%
CC(C)(C)NC(=O)COC(=O)c1c2c(nc3ccccc13)CCC2	?	-6%	-1.9	-24%	-8%	-25%	i	0%
CCOC(=O)c1cc(-c2ccccc2)sc1NC(=O)C(C)Sc1nnc(C)s1 (stereo not drawn)	-22%	2%	0.5	5%	4%	?	-4%	?
COc1ccc(-n2c(SCC(=O)Nc3ccc(C(=O)O)cc3)nnc2-c2cccs2)cc1	-29%	-1%	-3.5	8%	-7%	0%	-20%	-8%
CCCCCc1nnc(NC(=O)Cc2cccs2)s1	-6%	3%	-2.8	-2%	?	?	-4%	2%
O=C(Nc1nnc(SCC(=O)N2CCOCC2)s1)C1CC(=O)N(c2ccc(F)cc2)C1 (stereo not drawn)	2%	8%	-2.2	-10%	-22%	19%	i	-2%
COc1cc(Cl)c(C)cc1NC(=O)Cc1cccs1	-10%	12%	0.2	-4%	-3%	?	i	13%
CCc1ccccc1-n1c(SCC(=O)NC)nnc1-c1ccco1	-3%	3%	-1.1	12%	-4%	13%	i	2%
O=C(NCCOc1ccccc1)c1cc(S(=O)(=O)N2CCOCC2)ccc1F	12%	20%	0.6	-1%	0%	-3%	-2%	-6%
CSc1ncccc1C(=O)N(C)CC(=O)Nc1ccc(Cl)c(C(F)(F)F)c1	-3%	-13%	-5.2	-1%	-2%	?	-31%[inhibitor]	-13%
Cn1c(C(=O)O)cc2c(=O)n3ccccc3nc21	-30%	179%[activator]	-0.4	-1%	-5%	3%	?	-6%
COc1ccc(-c2cnc(N)nc2-c2ccc(OC)cc2)cc1	-1%	-2%	-2.1	3%	-3%	?	-7%	9%
CCOC(=O)c1c(NS(C)(=O)=O)sc2c1CCC(C)C2 (stereo not drawn)	-1%	0%	-0.2	5%	?	-7%	i	1%
Cn1c(C(=O)NCCC2=CCCCC2)cc2c(=O)n3ccccc3nc21	-4%	75%[activator]	1.9	8%	-4%	31%[activator]	-6%[57.5 µM]	-1%
C=CCN1C(=O)c2ccc(C(=O)N3CCN(S(=O)(=O)c4cccc(Cl)c4)CC3)cc2C1=O	-9%	10%	-0.3	-3%	6%	-7%	i	0%
CCOCCCn1c(=S)[nH]c2cc(C(=O)NCc3ccc(F)cc3)ccc2c1=O	12%	-26%	-2.3	9%	-10%	13%	-16%	4%
CC(SCc1nc2sc3c(c2c(=O)[nH]1)CCCC3)C(=O)Nc1ccccn1 (stereo not drawn)	-13%	7%	0.9	-10%	?	3%	-30%	-1%
O=C(NCCNCc1ccccc1)c1ccco1	?	152%[activator]	-5.3	-5%	?	5%	-20%	0%
COc1ccc(CC2(CO)CCN(C(=O)NCc3ccccc3)CC2)cc1	4%	-4%	1.8	10%	-26%	?	i	5%
CCOc1cc(C2/C(=C(\O)c3cc(C)ccc3C)C(=O)C(=O)N2CCN(C)C)ccc1O (stereo not drawn)	2%	6%	-1.2	0%	-6%	0%	i	-7%
CCCCNC(=O)c1nc(C2CCN(S(=O)(=O)c3ccc(Cl)cc3)CC2)oc1-c1ccccc1	24%	1%	2.2	-2%	3%	23%	-12%	/
O=C(CSc1nnc(NC(=O)C2CC(=O)N(c3ccc(F)cc3)C2)s1)NC1CCCC1 (stereo not drawn)	-4%	8%	2.4	5%	4%	-8%	i	-8%

Fetched by structure from above:
SMILES	EPAC1 antagonist	HEK293 tox	IL-2 act	EPAC1 agonist	PLK1 PBD block	GLP-1R inv ag	PTHR1 ag	GLP1R ag
CSc1ncccc1C(=O)N(C)CC(=O)Nc1ccc(Cl)c(C(F)(F)F)c1	-3%	-13%	-5.2	-1%	-2%	?	-31%[inhibitor]	-13%
CCCCCc1nnc(NC(=O)Cc2cccs2)s1	-6%	3%	-2.8	-2%	?	?	-4%	2%
Cn1c(C(=O)NCCC2=CCCCC2)cc2c(=O)n3ccccc3nc21	-4%	75%[activator]	1.9	8%	-4%	31%[activator]	-6%[57.5 µM]	-1%

Screens (PubChem)

A portion of the library; count on the stated rates, not on these rows.
